TRPV1 PAM: enhances activation of the human vanilloid receptor TRPV1 | Q8NER1 | TRPV1-expressing cells, Fluo-8 calcium influx, capsaicin EC20 potentiation; host cell line not named in the record; control for the full effect not named in the record | 320,000 tested, 0.02% active | potentiation, % at 8.33 µM | AID 540277; active means potentiation above 80%; inconclusive means 30% to 80%; inactive means below 30%; note: 0% is about no effect
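Fluo-8 calcium influx in TRPV1-expressing cells, kinetic read (ex 480/em 520 nm). Compound added and read 3 min for agonist activity, followed by capsaicin at EC20 final and 2 min further read for enhancement.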
Sfp PPTase inh: blocks B. subtilis Sfp PPTase activity; Q9F4F7; Potency, µM, without a hit: max response, negative = inhibition, usual class: inhibitors; 310,000 tested, 3.5% active; AID 1490; Biochemical Sfp PPTase activity, qHTS; active = well fitted inhibition curve with a large enough effect; inconclusive = small, poorly fitted or top-dose-only effect, or another doubt; inactive = no such curve, though single readings can be large or run the other way;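 note: the enzyme is Sfp with the accession as filed and its product quenches rhodamine fluorescence; potency is the fitted concentration of half-maximal effect; 0% = enzyme reaction without inhibitor and -100% = no enzyme wells; top concentration of the series not given in the record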
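Reaction rates are the 30-min fluorescence difference (ex 525, em 598 nm) in wells containing 15 nM Sfp, 5 uM rhodamine-CoA and 12.5 uM BHQ-2-YbbR at pH 7.6 with 10 mM MgCl2.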
CtBP-E1A blk: inhibitors of CtBP/E1A interaction. AlphaScreen GST-E1A/His-CtBP binding, 1536-well; hits give low values; control for the full effect not named in the record. activity change, % (test concentration not listed). 340,000 tested, 0.49% active. AID 651724; in the data active means activity change below about -65%; inconclusive means about -30% to -65%; inactive means above about -30%; note: % is set by controls: 0 for no effect and ±100 for the full control effect; compound concentration not given in the record
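Steps: dispense buffer (Tris pH 8.0, NaCl 300 mM, TCEP 1 mM, BSA, Tween 20); add 5X protein mix (GST-E1A, His-CtBP, 125 nM each); pin 23 nL compound; 2 h at 37 °C, dark; add 5X beads (50 ug/mL); 1 h; read.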
PINK1 expr mod: changes PINK1 expression. Potency, µM (doses to about 76.6 µM), for the others: top-dose activation (PINK1 increase), most hits filed as activators. 410,000 tested, 0.2% active. PINK1 immunofluorescence, high-content cytometry, 24 h; active = well fitted activation curve with a large enough effect; inconclusive = small, poorly fitted or top-dose-only effect; inactive = flat fitted curve, though single readings scatter; cell line not stated here;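 note: potency is the fitted concentration of half-maximal effect; % of control where 0% means no effect; nearly all actives have a fitted effect of over 65% in size; a mitochondrial uncoupler was the plate control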
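Compound titrations (5 concentrations, 24 h) on a stable cell line; DMSO and CCCP controls. Endpoint: fixed-cell PINK1 immunofluorescence with mitochondrial, cell and nuclear markers, scanned by microplate cytometer.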
D2 PAM: human D2 receptor positive allosteric modulation; P14416; DiscoveRx D2 beta-arrestin cells, luminescence, 90 min; 100% = 57 uM dopamine signal; potentiation, % (no concentration beside the values); 360,000 tested, 0.23% active; AID 624464; active = potentiation of 50% or more; inconclusive = 30% to 50%; inactive = 30% or less;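 note: compound concentration not given in the record; tested on top of an EC20 dose of dopamine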
Target sequence (P14416 whole entry, looked up): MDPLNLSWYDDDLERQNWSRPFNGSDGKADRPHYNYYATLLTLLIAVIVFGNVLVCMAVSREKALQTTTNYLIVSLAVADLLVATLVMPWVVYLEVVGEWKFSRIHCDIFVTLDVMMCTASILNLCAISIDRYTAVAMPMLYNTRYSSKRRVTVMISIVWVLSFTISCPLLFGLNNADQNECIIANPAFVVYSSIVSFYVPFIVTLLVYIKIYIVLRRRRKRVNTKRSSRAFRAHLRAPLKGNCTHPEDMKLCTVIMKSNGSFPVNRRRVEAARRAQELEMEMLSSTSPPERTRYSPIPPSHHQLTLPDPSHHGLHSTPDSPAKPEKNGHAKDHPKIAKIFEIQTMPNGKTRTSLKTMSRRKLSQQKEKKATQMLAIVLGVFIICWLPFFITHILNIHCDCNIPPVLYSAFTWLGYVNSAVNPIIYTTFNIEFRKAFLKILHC
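D2 cells co-treated with compound plus 50 nM dopamine (EC20) for 90 min at 37 deg C to detect potentiation. Beta-arrestin recruitment was read as enzyme-fragment luminescence after 1 h at ambient temperature. Full response was set by 57 uM dopamine.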
Six1-Eya2 inh: Six1/Eya2 interaction inhibition; Q15475+O00167; AlphaScreen GST-Six1/His-Eya2 binding, biochemical; hits give low values; control for the full effect not named in the record; activity change, % (concentration not given with the values); 360,000 tested, 0.56% active; AID 651725; in the data active = activity change below about -65%; inconclusive = about -30% to -65%; inactive = above about -30%; note: % is set by controls: 0 for no effect and ±100 for the full control effect
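Homogeneous AlphaScreen proximity assay pairing GST-Six1 with His-tagged Eya2 (added as 5X mix: 250 nM and 500 nM) in 50 mM Tris pH 8.0, 300 mM NaCl, 1 mM TCEP. Glutathione donor and nickel acceptor beads; 1 h, 37 °C, dark.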
D2 agonist: agonists of human D2 dopamine receptor (beta-arrestin). P14416. DiscoveRx PathHunter D2 beta-arrestin, luminescence, 90 min; 100% = 57 uM dopamine signal. activation, % (no concentration beside the values). 360,000 tested, 0.084% active. AID 624465; in the data active = activation above about 40%; inconclusive = about 15% to 40%; inactive = below about 15%; note: compound concentration not given in the record; the text of the record calls up to 30% inactive
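DiscoveRx PathHunter D2 beta-arrestin cells (2,100/well) attached overnight, then compound-stimulated 90 min at 37 C in HBSS/10 mM HEPES/0.1% Tween-20 buffer; beta-galactosidase complementation read by luminescence after 1 h at ambient temperature. Dopamine 57 uM final (EC100) as control.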
Numbers without * were called inactive; ? = inconclusive; . = not tested or not shown; & = joins results of further samples; [ ] = another dose, or the depositor's remark. Rows were taken by chance; 3.7% or so of the library scored in one or more.

SMILES	TRPV1 PAM	Sfp PPTase inh	CtBP-E1A blk	PINK1 expr mod	D2 PAM	Six1-Eya2 inh	D2 agonist
CCN1CCN(CCCNC(=O)c2cc3cc4ccc(OC)cc4nc3o2)CC1	-1	11%	-3	1.4%	9	-11	-3.1
CC1(C)N=C(c2ccccn2)C(C)(C)N1O	7	-17%	0	-3.5%[38.3 µM]	-1	1	1.3
Cn1c(N)c(S(=O)(=O)NCc2ccccc2Cl)c(=O)n(C)c1=O	17	23%	-7	3.9%	1	-5	5.3
Cc1c(C)n(-c2ccccc2)c2ncnc(NCCN(C)C)c12	-19	2%	-3	-1.5%	-23	-12	-5.6
CCOC(=O)C(=O)/C(=C\N(C)C)c1onc(-c2ccccc2Cl)c1C(=O)OC	4	14%	-1	-1.2%	2	3	-1.8
COc1ccc(S(=O)(=O)n2cnc(C)c2)cc1	0	9%	5	-0.8%	-2	2	0.0
CC(C)n1nnnc1SCC(=O)NCc1ccc2c(c1)OCO2	-9	14%	0	-0.6%	-6	6	-1.1
CN(C(=O)CSc1nnc(-c2ccco2)n1Cc1ccccc1)C1CCS(=O)(=O)C1 (stereo not drawn)	-9	.	9	-0.8%	0	3	9.0
CCC(CC)NC(=O)/C=C/c1cccc([N+](=O)[O-])c1	-3	2%	7	2.6%	-8	4	-0.8
COc1cc(-c2noc(C)c2C(=O)NCCCN2CCOCC2)cc(OC)c1OC	.	.	6	-0.8%	-4	5	0.7
Cc1cc(C)cc(NCC(=O)Nc2c(C)cccc2C)c1	-2	16%	-1	2.0%	-7	-3	-0.1
COC(=O)c1ccc(CNC(=O)Cn2cnc(C(=O)Nc3ccc(C)c(C)c3)n2)cc1	.	.	4	-1.0%	.	-1	-0.3
Cc1ccc2cc(C)c(N3CCC(C)CC3)nc2c1	0	-20%	0	?	-6	24	-2.3
CC1(C)CC(=O)C(C2C3=C(CC(C)(C)CC3=O)Oc3ccc4ccccc4c32)C(=O)C1 (stereo not drawn)	13	-16%	-1	19%	-2	0	3.3
CSc1cccc(NS(=O)(=O)c2ccc3c(c2)oc(=O)n3C)c1	9	-8%	-1	1.6%	-4	1	1.9
CCOc1ccc(N)cc1OC	-1	5%	0	1.5%	3	-1	-2.3
COc1ccc(N2CC(C(=O)N[C@@H](C)C(=O)NCCc3ccccc3)CC2=O)cc1 (stereo partly drawn)	5	5%	1	-1.1%	-10	3	1.3
c1ccc(Cn2c[n+](Cc3ccccc3)c3ccccc32)cc1	-7	15%	.	3.1%	-5	-4	-0.6
CS/C(=N/S(=O)(=O)c1ccc(C)cc1)c1ccccc1	4	9%	-23	2.7%	-7	-4	-5.2
O=C(CSc1ncnc2c1nnn2Cc1ccc(F)cc1)NCC1CCCO1 (stereo not drawn)	-16	7%	7	0.1%	-8	-2	-1.5

Reprinted from the part before: 7 entries, followed by the next part.
SMILES	TRPV1 PAM	Sfp PPTase inh	CtBP-E1A blk	PINK1 expr mod	D2 PAM	Six1-Eya2 inh	D2 agonist
CC1(C)CC(=O)C(C2C3=C(CC(C)(C)CC3=O)Oc3ccc4ccccc4c32)C(=O)C1 (stereo not drawn)	13	-16%	-1	19%	-2	0	3.3
CSc1cccc(NS(=O)(=O)c2ccc3c(c2)oc(=O)n3C)c1	9	-8%	-1	1.6%	-4	1	1.9
CCOc1ccc(N)cc1OC	-1	5%	0	1.5%	3	-1	-2.3
COc1ccc(N2CC(C(=O)N[C@@H](C)C(=O)NCCc3ccccc3)CC2=O)cc1 (stereo partly drawn)	5	5%	1	-1.1%	-10	3	1.3
c1ccc(Cn2c[n+](Cc3ccccc3)c3ccccc32)cc1	-7	15%	.	3.1%	-5	-4	-0.6
CS/C(=N/S(=O)(=O)c1ccc(C)cc1)c1ccccc1	4	9%	-23	2.7%	-7	-4	-5.2
O=C(CSc1ncnc2c1nnn2Cc1ccc(F)cc1)NCC1CCCO1 (stereo not drawn)	-16	7%	7	0.1%	-8	-2	-1.5
Cc1ccc(N(C(=O)c2sc(C)nc2C)C(C(=O)NCc2ccco2)c2ccccc2)cc1 (stereo not drawn)	2	-8%	-5	.	-20	-6	-1.7
COC(=O)c1ccc(Oc2nc(N(C)C)nc(N3CCOCC3)n2)cc1	-13	-2%	2	3.2%	-16	-1	-3.8
O=[n+]1c2c(n([O-])c3c1CCCC3)CCCC2	6	7%	9	?	-8	4	-0.8
Cc1nnc(SC(C)C(=O)Nc2c(C)n(C)n(-c3ccccc3)c2=O)n1N (stereo not drawn)	7	?	11	-1.1%	-2	17	-2.7
COc1ccc2[nH]c(C(=O)Nc3ccccc3Cl)cc2c1	11	16%	.	2.1%	-23	-1	-5.7
COc1ccc(C)cc1NC(=O)CCNS(=O)(=O)c1ccc2c(c1)CCC(=O)N2	-9	25%	-2	-1.9%	-17	0	-4.3
O=C(CSCc1ccccc1)N1CCN(C(=O)c2ccco2)CC1	4	0%	8	.	-20	0	-0.8
CN(CC(=O)Nc1ccc(S(=O)(=O)N(C)C)cc1)Cc1ccc(C(F)(F)F)cc1	4	22%	5	-1.1%	-4	13	-1.6
O[C@@H]1CN(Cc2ccccc2Cl)CC[C@H]1N1CCOCC1	15	7%	.	-1.0%	-22	8	-1.8
NS(=O)(=O)c1ccc(CCNC(=O)c2ccco2)cc1	-14	18%	-1	1.5%	-8	4	-3.9
CCCn1c(O)c(N=NC(=O)c2ccco2)c2ccccc21	25	-2%	-3	0.9%	1	-11	-7.9
CCCCOCCCNC(=O)C[C@@H]1C[C@@]2(C(=O)OCC)CCC=C2N(Cc2cccc3ccccc23)C1=O	.	.	1	6.2%	.	2	.
COc1ccc(-n2nnnc2-c2cccc(OC)c2)cc1	0	12%	3	1.1%	12	4	-0.5
Cc1ccc(N=Nc2ccc(O)c(/C=N\NC(=O)c3ccc(N)cc3)c2)cc1C	-1	11%	4	9.1%[38.3 µM]	-25	0	-7.4
COc1ccc(NC(=O)C2CCC(CNS(=O)(=O)c3cccs3)CC2)cc1OC (stereo not drawn)	2	12%	-17	-1.8%&-0.4%	-1	-3	1.5
CCC(Cc1ccccc1)NC(=O)Cn1cccc1C(=O)c1ccccc1 (stereo not drawn)	-16	3%	.	-1.0%	-16	-11	-4.5
Cc1ccc(C)c(S(=O)(=O)NCC(c2ccco2)N2CCc3ccccc3C2)c1 (stereo not drawn)	-3	.	3	15%	-7	-9	-0.8
O=C1CCCN1CC1CCCN(Cc2nc(COc3ccccc3)no2)C1 (stereo not drawn)	11	15%	3	-0.6%	-5	0	0.0
CCNc1nc(NCC)nc(N(C#N)CCOc2ccccc2)n1	3	7%	1	-2.0%	0	8	0.3
CCOc1ccc(-n2c(Cc3cc(=O)[nH]c(=O)[nH]3)nnc2SCC(=O)OC)cc1	.	17%	4	-0.1%	-2	-7	-5.8
CC1CCN(C(=O)COC(=O)c2ccc([N+](=O)[O-])o2)CC1	.	.	2	-1.0%	9	-6	8.2
CC(C)(C)Nc1ncnc2c1cnn2-c1ccccc1	-16	6%	-5	2.1%	-2	-1	-2.0
C=CC[C@H](CC(=O)N[C@H](CO)Cc1ccccc1)C(=O)N[C@@H](COC(=O)[C@@H](CC=C)CC(=O)OC(C)(C)C)Cc1c[nH]c2ccccc12	.	.	-8	0.1%	11	-12	6.3
O=C1OC=NC1=Cc1ccccc1	.	.	3	-0.4%	-14	1	-0.2
CC1COc2ccccc2N1S(=O)(=O)c1ccccc1 (stereo not drawn)	3	-12%	3	0.3%	-11	10	-4.7
C[C@]12CC[C@@H]3c4ccc(O)cc4CC[C@H]3[C@@H]1CC[C@@H]2OC(=O)CCC(=O)O	6	-23%	3	2.2%	14	1	-3.4
CNc1cccc(-c2ccccc2C(C)=O)n1	.	.	1	-0.4%	-12	0	-2.6
CC1=C(C(=O)N2CCCC(CCC(=O)NCc3ccccc3F)C2)OCCO1 (stereo not drawn)	3	9%	12	-1.2%	-6	3	-0.6
CC(C)(C)NC(=O)CCc1nnc(Cc2c[nH]c3ccccc23)o1	-17	6%	-20	0.1%	-3	-2	-1.3
CCC(C)c1ccccc1NC(=O)C(C)OC(=O)CN1C(=O)NC(C)(C)C1=O (stereo not drawn)	-4	.	-4	-3.0%	0	3	0.4
Cc1noc(C)c1COC(=O)c1ccc(F)c(S(=O)(=O)N2CCCCC2)c1	-1	-11%	.	-2.3%	-15	14	0.5
COc1ccc(NC(=O)C(c2cc3c(cc2[N+](=O)[O-])OCO3)N2CCN(C=O)CC2)cc1 (stereo not drawn)	15	-19%	-3	1.1%	-5	-17	-0.1
COc1cc(/C=N\NC(=O)c2ccc(Cn3nc([N+](=O)[O-])c(Cl)c3C)o2)ccc1O	26	-10%	-84*	8.5%	-7	-83*	1.0
O=S(=O)(c1ccc(N2CCN(CCO)CC2)nc1)N1CCOCC1	-1	.	-23	-0.8%	12	11	1.6
COc1ccc(NC(=O)CSc2ncnc3c2sc2ccccc23)c(OC)c1	15	-3%	-8	?	-8	2	3.6
O=C(CCC(=O)N(CC(=O)NC1CCCC1)c1cccc(F)c1)Nc1nccs1	12	1%	2	4.4%	-9	34	-2.7
CCOC(=O)c1ccc(NC(=O)CCn2c(=O)oc3ccccc32)cc1	24	10%	3	1.0%&2.3%	-10	0	0.4
CCCCC(=O)O[C@H]1CC[C@H]2[C@@H]3CCc4cc(O)ccc4[C@H]3CC[C@]12C	-6	14%	-16	0.0%	-8	3	-0.1

Assay outcomes (PubChem)
